Source: PubChem
VDR inhibitor – blocks the human vitamin D receptor; P11473; VDR-SRC2-3 peptide fluorescence polarization, 2 h; Potency, µM, for the others: max response, negative = inhibition, usual class: inhibitors; 400,000 tested, 0.93% active; AID 504847; active = well fitted inhibition curve with a large enough effect; inconclusive = small, poorly fitted or top-dose-only effect, or another doubt; inactive = no such curve, though single readings can be large or run the other way; note: series mostly up to about 120 µM
Target sequence (P11473 whole entry, looked up): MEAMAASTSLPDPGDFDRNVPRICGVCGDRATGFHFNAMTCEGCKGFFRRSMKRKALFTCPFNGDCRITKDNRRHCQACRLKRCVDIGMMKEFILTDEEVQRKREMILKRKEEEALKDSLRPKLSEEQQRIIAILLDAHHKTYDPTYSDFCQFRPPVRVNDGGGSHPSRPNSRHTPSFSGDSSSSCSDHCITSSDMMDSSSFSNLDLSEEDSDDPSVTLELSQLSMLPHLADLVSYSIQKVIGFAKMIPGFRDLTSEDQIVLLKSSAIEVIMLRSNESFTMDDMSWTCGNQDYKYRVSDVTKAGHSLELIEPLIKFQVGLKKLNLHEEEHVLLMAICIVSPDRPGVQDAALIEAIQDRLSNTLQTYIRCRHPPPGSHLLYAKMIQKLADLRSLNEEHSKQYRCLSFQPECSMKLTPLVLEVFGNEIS
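After 23 nl compound addition and a short centrifugation, plates sat for 2 hours at ambient temperature; polarization of fluorescence then indicated loss of VDR binding to peptide SRC2-3.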
Numbers without * were called inactive; ? = inconclusive; & = joins results of further samples; [ ] = dose if it differs, or a comment. % is set by controls: 0 for no effect and ±100 for the full control effect; potency is the fitted concentration of half-maximal effect. A portion of the library; the hit share may differ from the screen's.

SMILES | VDR inhibitor
COc1cccc(NC(=O)c2ccc3c(SCC(=O)O)c4c(nc3c2)CCCC4)c1 | 12%
N#CC1=C(N)Oc2n[nH]c(-c3ccc(F)cc3)c2C1c1cccnc1 (centres undefined) | -14%
Cc1ccc(OCC(=O)NCCc2nc3ccccc3[nH]2)c(C)c1 | 14%
C=CCN(C(=O)Nc1ccc(OC)cc1)c1nnc(-c2ccncc2)s1 | -24%
CCN(CC)CCNC(=O)c1c(O)c2c([nH]c1=O)CCCC2 | -4%
O=C(COC(=O)COc1ccccc1)NCc1ccc2c(c1)OCO2 | -10%
CC1CCc2c(sc(NC(=O)CSc3nc(N)cc(=O)[nH]3)c2C(N)=O)C1 (centres undefined) | -12%
CCOC(=O)CC(=O)Nc1cc(Cl)ccc1O | 10%
OCC[C@@H]1C[C@@H](O)[C@H](O)[C@]2(OCc3ccccc32)O1 | 10%
COc1ccc(CN2C3CCC2CC(NC(=O)c2cccc(F)c2)C3)cc1 (centres undefined) | -11%
Cc1nn(Cc2ccccc2Cl)c2sc(C(=O)NCCCn3ccnc3)cc12 | 2%
O=C(CSc1nc(-c2cccs2)cc(C(F)(F)F)n1)Nc1ccccc1Cl | -4%
O=C(Nc1ccc(F)cc1)NC1(C(=O)NCc2ccco2)CCCCC1 | 2%
Cc1ccc(-n2ncc(C(=O)N3CCC(c4ccccc4)C3)c2C2CCN(C(=O)OC(C)(C)C)CC2)cc1 (centres undefined) | 4%
O=[N+]([O-])c1ccc(-c2nnc(-c3ccccc3)c(NCCCO)n2)cc1 | -9%
Cc1ccc(C2(C(F)(F)F)NC(=O)N3C(=C2C#N)Nc2ccccc23)cc1 (centres undefined) | 8%
CCOC(=O)c1c(N)sc(C(=O)N2CCCC(C(N)=O)C2)c1C (centres undefined) | 1%
CCn1c(SCC(=O)O)nnc1-c1cc2c(C)nn(-c3ccccc3)c2s1 | -10%
CCN(C(=O)CSc1nc(-c2ccc(C(C)C)cc2)no1)c1ccccc1 | 3%
Cc1c(N=CN2CCOCC2)c(=O)n(C)c(=O)n1C | -1%

Filtered by structure, the compounds so far with two or more sulfur atoms
SMILES | VDR inhibitor
CC1CCc2c(sc(NC(=O)CSc3nc(N)cc(=O)[nH]3)c2C(N)=O)C1 (centres undefined) | -12%
O=C(CSc1nc(-c2cccs2)cc(C(F)(F)F)n1)Nc1ccccc1Cl | -4%
CCn1c(SCC(=O)O)nnc1-c1cc2c(C)nn(-c3ccccc3)c2s1 | -10%

Other structures:
SMILES | VDR inhibitor
O=C(C1CCOCC1)N1CCCC(N2CCN(c3cccc(Cl)c3)CC2)C1 (centres undefined) | 7%
COCc1[nH]nc2c1C1(CCC3(CC1)OCCO3)C(C#N)=C(N)O2 | -7%
COc1ccccc1NC(=O)CSc1nc2ccccc2c2nc(-c3ccccc3)nn12 | 16%
Fc1ccc(NC(=S)N2CCN(C/C=C/c3ccccc3)CC2)c(F)c1 | -6%
COc1ccc(-c2nc(CS(=O)(=O)CC(=O)NCCc3ccc(C)cc3)c(C)o2)cc1 | 8%&-24%
O=C(C1=C(O)C(=O)N(CCN2CCOCC2)C1c1cccnc1)c1cc2ccccc2o1 (centres undefined) | -24%
O=C(CCN1C(=O)/C(=C/c2cccs2)SC1=S)NNC(=O)c1cccc(O)c1 | -2%
Cc1cc(-c2nnc(SCC(=O)Nc3ccccc3Cl)n2C)no1 | 0%
CCOC(=O)N1CCC(NC(=O)c2cnn(-c3cccc(C)c3)c2-n2cccc2)CC1 | 14%
O=C(NCCCN1CCN(c2ccccc2F)CC1)c1ccc2nc(CCc3ccccc3)oc2c1 | 2%
O=C(COc1ccc(Cl)cc1)Nc1nnc(C2=COCCO2)o1 | 1%
CCC(C)NC(=O)CSc1n[nH]c(-c2cc(Cl)ccc2OC)n1 (centres undefined) | -9%
Cc1cccc(N2CCN(C(=O)c3cn(C)c(=O)c4c3c3ccccc3n4C)CC2)c1C | 15%
O=C(c1cc(-c2ccccc2)nc2ccccc12)N1CCN(c2ccccc2O)CC1 | 5%
COc1cc(OC)cc(-n2nnnc2SCC(=O)N2CCCC2)c1 | 3%
COc1ccc(N2CCN(C(=O)c3cc4c(s3)-c3ccccc3S(=O)(=O)C4)CC2)cc1 | 7%
CC(NC(=O)CSc1nc2ccccc2c(=O)[nH]1)c1ccccc1 (centres undefined) | -7%
COC(=O)c1cc(NC2c3ccccc3C(=O)N2CCN2CCOCC2)cc(C(=O)OC)c1 (centres undefined) | -15%
Cn1cnnc1SCC(=O)Nc1ccc2nc(SCc3cccc4ccccc34)sc2c1 | -2%
CC1(C)CC(=O)C=C(OC(=O)c2ccc(Cl)cc2)C1 | 16%

The list goes on; it opens with the 2 that closed the last part.
SMILES | VDR inhibitor
Cn1cnnc1SCC(=O)Nc1ccc2nc(SCc3cccc4ccccc34)sc2c1 | -2%
CC1(C)CC(=O)C=C(OC(=O)c2ccc(Cl)cc2)C1 | 16%
CCOC(=O)c1c(NC(NC(=O)C(C)C)C(Cl)(Cl)Cl)sc2c1CCC2 (centres undefined) | 1%
CCOC(=O)c1oc2nc3c(cc2c1N)COC(C)(C)C3 | 9%
CC(C)Cn1cnc2c(SCc3ccccc3)nc(N)nc21 | 8%
COC(=O)c1c(C)noc1-c1ccc(Cl)cc1 | -9%
CCCn1c(N)c(C(=O)CN(C)CC(=O)Nc2ccccc2C(F)(F)F)c(=O)[nH]c1=O | 5%
COc1cc2nc(SCc3ccc(Cl)cc3Cl)n(Cc3cccs3)c(=N)c2cc1OC | 10%
CCCCN(C(=O)c1cc(=O)[nH]c2ccccc12)c1c(N)n(CCCC)c(=O)[nH]c1=O | -10%
CCOC(=O)c1cc(=O)[nH]c2ccccc12 | -14%
COc1ccc(Sc2nc(-c3ccccc3)ncc2C(=O)O)cc1 | -4%
Cc1cccc(OCC(=O)Nc2ccccc2C(=O)N2CCOCC2)c1 | -17%
C/C(=N/n1cnnc1)c1cccnc1 | 5%
O=C(N/N=C/c1c[nH]c2ccccc12)c1ccccc1 | -14%
COc1ccc(CCNC(=O)COC(=O)CCC(=O)c2ccc(F)cc2)cc1 | -17%
CCCC(C)NS(=O)(=O)c1ccccc1 (centres undefined) | 11%
COc1ccc(C2NC(=S)NC3=C2CCc2cc(OC)ccc23)cc1 (centres undefined) | ?
CCc1nc2cc([N+](=O)[O-])c([N+](=O)[O-])cc2[nH]1 | -3%
C=CCSc1nnc(NC(=O)c2cccc(S(=O)(=O)N(C)c3ccccc3)c2)s1 | -7%
COc1ccccc1NS(=O)(=O)c1ccc2oc(SCc3ccc(F)cc3)nc2c1 | -8%
CCOc1cc(C(=O)OCc2cc(=O)n3c(C)csc3n2)ccc1OC | 8%
COc1ccc(CC(=O)Nc2c3c(nn2-c2ccccc2C)CS(=O)C3)cc1 (centres undefined) | 12%
O=C(c1ccccc1)c1ccc(OCC(O)CNCc2cccc(Cl)c2)cc1 (centres undefined) | 7%
O=C(Cn1cncc1-c1ccc([N+](=O)[O-])cc1)Nc1ccccc1F | -6%
Cc1cc(C)c(NC(=O)C(C)Sc2nc3ccc(N4C(=O)c5ccccc5C4=O)cc3s2)c(C)c1 (centres undefined) | 11%
CC(=O)C1=C(C)NC(SCC(N)=O)=C(C#N)C1c1cccnc1 (centres undefined) | 5%
Cc1ccc(CCNC(=O)C2CCC(CNc3c(N4CCCC4)c(=O)c3=O)CC2)cc1 (centres undefined) | -16%
O=C(CSc1ncc2c(n1)-c1ccc(Cl)cc1N(Cc1ccccc1)S2(=O)=O)Nc1ccc(F)c(F)c1 | 1%
CC(C)N(Cc1cnn(C)c1)C(=O)c1ccc(OC2CCN(Cc3ccccn3)CC2)cc1 | -6%
O=C(CNC(=O)c1ccccc1F)N/N=C/c1cn[nH]c1-c1ccccc1 | 6%
COc1ccc(CNC(=O)CSc2ncc3c(n2)-c2ccc(Cl)cc2N(Cc2ccc(F)cc2)S3(=O)=O)cc1OC | 13%
CCCSc1nc(SCC(=O)NCc2ccccc2)c2c3c(sc2n1)COC(C)(CC)C3 (centres undefined) | 2%
O=C(CSc1nnnn1C1CCCC1)Nc1ccc2c(c1)OCO2 | 2%
COc1cccc(NC(=O)CN2CCN(c3ccccc3F)CC2)c1 | 13%
S=C(NCc1cccnc1)Nc1ccc(Cl)cc1Cl | -9%
CC(C)CC(=O)NC1CC(=O)N(c2ccc3c(c2)OCCO3)C1 (centres undefined) | -9%
CC(C)c1ccc(NC(=O)c2ccccc2NC(=O)C2CCCCC2C(=O)O)cc1 (centres undefined) | 1%
COc1ccc2c(CC(=O)OCC(=O)Nc3cc(C)c(C)cc3[N+](=O)[O-])coc2c1 | -15%
Cc1cc(C)nc(Sc2ccc(/C=C(\C#N)C(=O)Nc3ccccc3)o2)n1 | 2%
Cc1ccccc1-n1nnnc1SCC(=O)NNC(=O)c1ccc(NC(=O)CC#N)cc1 | 10%
COc1cccc(C(=O)Nc2ccc(C(=O)NCC(C)C)cc2)c1 | -5%
CSc1ncc(C(=O)O)c(C)n1 | -13%
COC(=O)C1=C(C)NC(C)=C(C(=O)OC)C1C(=O)OCc1nnc(-c2ccccc2)o1 | -7%
O=C(Nc1ccccc1)c1nnn(Cc2ccccc2)c1NC(=O)C(F)(F)F | -6%
Cc1c(NC(=S)NC(=O)Cc2ccccc2)cccc1C(=O)O | 8%
CC1(C(=O)N(Cc2ccccc2)Cc2ccccc2)CC1(Br)Br (centres undefined) | -1%
C#CCOCCOCCOCCNc1nc(N2CCN(C(=O)[C@H]([C@@H](C)O)n3cc(CCCCN)nn3)CC2)nc(N2CCN(C(=O)[C@H](Cc3ccc(O)cc3)n3cc(CCO)nn3)CC2)n1 | -1%
CCN(CC)S(=O)(=O)c1ccc(NC(=O)COC(=O)c2ccc(-n3nc(C)cc3C)cc2)cc1 | 15%
CCOc1cc(/C=C2\N=C(C)OC2=O)cc(Cl)c1OCC(=O)OC | 45µM*
O=C(Nn1cnnc1)c1ccc(Br)s1 | ?
CCc1ccc(-c2[nH]c3c(c2-c2sc(C)c(C(=O)OC)c2O)c(=O)n(C)c(=O)n3C)cc1 | 5%
COc1ccc(CC(=O)NCc2n[nH]c(=S)n2C)cc1 | 0%
Cc1cc(Br)ccc1SCC(=O)OCC(=O)N1CCN(C(=O)c2ccco2)CC1 | -7%
Cc1ccc(NC(=O)COC(=O)c2ccc3c(c2)OCCO3)cc1S(=O)(=O)N1CCOCC1 | 4%
Cc1cccc(Nc2nc(N3CCN(C)CC3)nc(N)c2[N+](=O)[O-])c1 | -12%
CCOc1ccc(NC(=O)CSc2ncc3c(n2)-c2cc(Cl)ccc2N(C)S3(=O)=O)cc1 | -7%
CCN1CCC(O)(C(C(=O)OC)c2ccccc2)CC1 (centres undefined) | 15%
CC1CCN(C2=NC(=O)/C(=C/c3ccccc3F)S2)CC1 | -5%
COc1cccc(C(=O)Nc2ccc3nc(N4CCOCC4)cc(C)c3c2)c1 | 1%
CN(CC(=O)NCCN1CCCCCC1)S(=O)(=O)c1cccc2nsnc12 | -13%
Cc1ccnc(NC(=O)c2ccc(NS(=O)(=O)/C=C/c3ccccc3)cc2)c1 | -14%
Cc1oc(/N=C/c2ccc(Cl)cc2)c(C#N)c1C | 66%[activator]
(cont.)
SMILES | VDR inhibitor
O=C(NCc1cccnc1)C(=O)NCC(c1ccco1)N1CCOCC1 (centres undefined) | -7%
COCCOC(=O)C1=C(N)Oc2c(oc(CO)cc2=O)C1c1ccccc1F (centres undefined) | 4%
COCCCN1C(=O)C(=O)/C(=C(/O)c2ccc(OC)cc2C)C1c1cccnc1 (centres undefined) | -16%
Cc1ccc(C(=O)N/C(=C\c2ccc(-c3cccc([N+](=O)[O-])c3)o2)C(=O)NCCCN2CCOCC2)cc1 | -10%
O=C(O)c1ccc(C(=O)C(=O)c2ccccc2)cc1 | -10%
COc1ccc(OC)c(C(C)NC(=O)C(C)Cc2ccccc2)c1 (centres undefined) | 1%
COc1cccc(CC(=O)Nc2cc(S(=O)(=O)N3CCCCC3)ccc2C)c1 | -5%
CSc1ncccc1C(=O)OCC(=O)Nc1ccc(Cl)cn1 | 1%
CCCCOC(=O)Nc1nnc(CCc2ccccc2)s1 | 12%
COc1ccc(OC)c(N(CC(=O)NN=C2CCN(C)CC2)S(=O)(=O)c2ccccc2)c1 | -4%
O=C(C1CCCCC1)N1CCN(S(=O)(=O)c2cccc([N+](=O)[O-])c2)CC1 | 12%
O=C(NCc1ccco1)C1CCN(C(=O)c2cc3sccc3n2Cc2ccc(Cl)cc2)CC1 | 8%
Cc1cc(C)c(C#N)c(SCC(=O)c2cc(C)n(CCc3ccccc3)c2C)n1 | 5%
COc1cc([N+](=O)[O-])cc2cc(C(=O)NC(C)(C)C)c(=O)oc12 | 2%
CNC(=O)CSc1nc2c(c(=O)n(C)c(=O)n2C)n1Cc1ccc(C)cc1 | 8%
O=C(NCC1CCCO1)C1CCCN(Cc2cnn(-c3ccccc3)c2-n2cccc2)C1 (centres undefined) | 17%
CC(=O)N1CCN(C(C)=O)C1c1ccccc1 | 3%
COc1ccnc(N=CNOCc2cccc(Cl)c2Cl)c1C#N | -13%

In the list so far, these contain a CF3 group:
SMILES | VDR inhibitor
O=C(CSc1nc(-c2cccs2)cc(C(F)(F)F)n1)Nc1ccccc1Cl | -4%
Cc1ccc(C2(C(F)(F)F)NC(=O)N3C(=C2C#N)Nc2ccccc23)cc1 (centres undefined) | 8%
CCCn1c(N)c(C(=O)CN(C)CC(=O)Nc2ccccc2C(F)(F)F)c(=O)[nH]c1=O | 5%
O=C(Nc1ccccc1)c1nnn(Cc2ccccc2)c1NC(=O)C(F)(F)F | -6%

In the list so far, three contain bromine:
SMILES | VDR inhibitor
CC1(C(=O)N(Cc2ccccc2)Cc2ccccc2)CC1(Br)Br (centres undefined) | -1%
O=C(Nn1cnnc1)c1ccc(Br)s1 | ?
Cc1cc(Br)ccc1SCC(=O)OCC(=O)N1CCN(C(=O)c2ccco2)CC1 | -7%
